A1_apoptosis_2 – A1 inhibitors via caspase activation, primary screen, cell-based, luminescence, HTS, two replicates. MEF A1-2A-BIM cells, caspase-Glo luminescence, 3 h; percent of clofoctol response, DMSO zero. caspase activation, % (concentration not given with the values). 24,000 tested, under 10 active; in the data active means caspase activation above about 5.9%;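 further: wells of about 30 µL received 50 nL stock; the first replicate is given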
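Material: mouse embryonic fibroblasts co-expressing A1 and BIM (A1-2A-BIM), primed for A1 dependence / Quantity: 2500 cells/well / Buffer or medium: RPMI-1640 growth medium with 10% FBS / Doses: 50 nL compound per well, pinned / Schedule: 3 h compound exposure at 37 °C / Signal: Caspase-Glo luminescence (DEVD substrate) / Measure: Caspase-3/7 activation, seen as rise in luminescence signal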
* hit, by the source's call. Only part of the results is shown; the hit share may differ from the screen's.

SMILES A1_apoptosis_2
C[C@H](CO)N1C[C@H](C)[C@H](CN(C)C(=O)Cc2ccccc2)OCc2cn(nn2)CCCC1=O 0.0
C[C@H](CO)N1C[C@H](C)[C@H](CN(C)Cc2ccccc2)Oc2ccc(NC(=O)Cc3ccccc3)cc2CC1=O 0.0
C[C@@H]1CN([C@H](C)CO)C(=O)c2cc(NC(=O)Nc3ccc4c(c3)OCO4)ccc2O[C@@H](C)CCCCO[C@@H]1CN(C)S(=O)(=O)c1ccc(Cl)cc1 -0.1
CNC[C@@H]1Oc2ccc(NC(=O)Cc3cn(C)c4ccccc34)cc2C(=O)N([C@H](C)CO)C[C@H]1C -0.5
C[C@H]1CN([C@@H](C)CO)C(=O)Cc2cc(NC(=O)Nc3cccc4ccccc34)ccc2O[C@H]1CN(C)S(=O)(=O)c1cccs1 0.0
C[C@@H]1CCCCO[C@H](CN(C)Cc2ccncc2)[C@@H](C)CN([C@H](C)CO)C(=O)c2cc(NC(=O)Nc3cccc4ccccc34)ccc2O1 -0.9
Cc1noc(C)c1S(=O)(=O)Nc1ccc2c(c1)C(=O)N([C@H](C)CO)C[C@H](C)[C@@H](CN(C)C(=O)Nc1ccc(F)cc1)OCCCC[C@H](C)O2 0.5
C[C@@H]1CCCCO[C@H](CN(C)S(=O)(=O)c2ccc(F)cc2)[C@@H](C)CN([C@H](C)CO)C(=O)c2cc(NC(=O)Nc3ccc(C(F)(F)F)cc3)ccc2O1 0.1
COCCOC(=O)N1C(=O)[C@@]2(c3cc(C#CCNC(N)=O)ccc31)[C@H](c1ccc(OCCO)cc1)N1[C@H](c3ccccc3)[C@H](c3ccccc3)OC(=O)[C@H]1[C@@H]2C(=O)NC[C@H](O)c1ccccc1 1.1
CNC[C@H]1OCCCC[C@@H](C)Oc2ccc(NS(=O)(=O)c3cccs3)cc2C(=O)N([C@H](C)CO)C[C@H]1C 0.6
COc1cccc(-c2cnc3c(c2)C(=O)N([C@H](C)CO)C[C@H](C)[C@H](CN(C)Cc2ccc4c(c2)OCO4)O3)c1 0.6
C[C@H](CO)N1C[C@H](C)[C@@H](CN(C)S(=O)(=O)c2ccc(F)cc2)Oc2c(NC(=O)C3CC3)cccc2C1=O -0.2
C[C@@H]1CN([C@H](C)CO)C(=O)Cc2cc(NC(=O)Cc3cn(C)c4ccccc34)ccc2O[C@@H]1CN(C)S(C)(=O)=O -0.7
Cc1noc(C)c1S(=O)(=O)N(C)C[C@@H]1OCCCC[C@@H](C)Oc2ccc(NC(=O)Cc3ccccc3)cc2C(=O)N([C@@H](C)CO)C[C@@H]1C -0.2
COc1ccc(CN(C)C[C@H]2Oc3ccc(NC(=O)NC4CCCCC4)cc3C(=O)N([C@H](C)CO)C[C@@H]2C)cc1 -1.2
Cc1noc(C)c1S(=O)(=O)Nc1ccc2c(c1)C(=O)N([C@@H](C)CO)C[C@@H](C)[C@H](CN(C)Cc1ccc(C(=O)O)cc1)O2 -0.7
C[C@H]1CN([C@@H](C)CO)C(=O)c2cccc(NC(=O)Nc3ccccc3)c2O[C@@H]1CN(C)Cc1ccccc1 0.6
C[C@H](CO)N1C[C@H](C)[C@H](CN(C)S(=O)(=O)c2cn(C)cn2)Oc2ccc(NC(=O)Nc3ccc4c(c3)OCO4)cc2C1=O -0.5
COc1ccc(NC(=O)Nc2cccc3c2O[C@H](CN(C)S(=O)(=O)c2ccc(C)cc2)[C@@H](C)CN([C@@H](C)CO)C3=O)cc1 -0.6
COc1ccc(NC(=O)Nc2cccc3c2O[C@@H](CN(C)C(=O)NC(C)C)[C@H](C)CN([C@@H](C)CO)C3=O)cc1 0.6

Molecules above containing fluorine (three):
SMILES A1_apoptosis_2
Cc1noc(C)c1S(=O)(=O)Nc1ccc2c(c1)C(=O)N([C@H](C)CO)C[C@H](C)[C@@H](CN(C)C(=O)Nc1ccc(F)cc1)OCCCC[C@H](C)O2 0.5
C[C@@H]1CCCCO[C@H](CN(C)S(=O)(=O)c2ccc(F)cc2)[C@@H](C)CN([C@H](C)CO)C(=O)c2cc(NC(=O)Nc3ccc(C(F)(F)F)cc3)ccc2O1 0.1
C[C@H](CO)N1C[C@H](C)[C@@H](CN(C)S(=O)(=O)c2ccc(F)cc2)Oc2c(NC(=O)C3CC3)cccc2C1=O -0.2

The listing picks up, starting 4 compounds before the break.
SMILES A1_apoptosis_2
C[C@H]1CN([C@@H](C)CO)C(=O)c2cccc(NC(=O)Nc3ccccc3)c2O[C@@H]1CN(C)Cc1ccccc1 0.6
C[C@H](CO)N1C[C@H](C)[C@H](CN(C)S(=O)(=O)c2cn(C)cn2)Oc2ccc(NC(=O)Nc3ccc4c(c3)OCO4)cc2C1=O -0.5
COc1ccc(NC(=O)Nc2cccc3c2O[C@H](CN(C)S(=O)(=O)c2ccc(C)cc2)[C@@H](C)CN([C@@H](C)CO)C3=O)cc1 -0.6
COc1ccc(NC(=O)Nc2cccc3c2O[C@@H](CN(C)C(=O)NC(C)C)[C@H](C)CN([C@@H](C)CO)C3=O)cc1 0.6
COc1ccc(CN(C)C[C@H]2Oc3c(NC(=O)c4cnccn4)cccc3C(=O)N([C@H](C)CO)C[C@@H]2C)cc1 0.9
C[C@@H]1CCCCO[C@H](CN(C)C(=O)Cc2ccccc2)[C@@H](C)CN([C@H](C)CO)C(=O)c2cc(NS(=O)(=O)c3ccc(F)cc3)ccc2O1 -1.5
C[C@@H]1CN([C@H](C)CO)C(=O)c2cccc(NC(=O)Nc3ccccc3)c2O[C@H]1CN(C)C(=O)Nc1ccc(F)cc1 0.6
CC(C)NC(=O)Nc1ccc2c(c1)C(=O)N([C@H](C)CO)C[C@H](C)[C@@H](CN(C)Cc1ccc(C(F)(F)F)cc1)OCCCC[C@@H](C)O2 1.2
C[C@@H]1CN([C@H](C)CO)C(=O)Cc2cc(NC(=O)CCCN(C)C)ccc2O[C@@H]1CN(C)CC1CCCCC1 -0.3
C[C@H](CO)N1C[C@H](C)[C@@H](CN(C)Cc2ccc(Oc3ccccc3)cc2)Oc2ccc(NS(=O)(=O)c3ccc(F)cc3)cc2C1=O 0.6
Cc1noc(C)c1S(=O)(=O)Nc1ccc2c(c1)CC(=O)N([C@@H](C)CO)C[C@H](C)[C@H](CN(C)CC1CCCCC1)O2 -1.0
C[C@@H]1CCCCO[C@H](CN(C)CC2CC2)[C@@H](C)CN([C@H](C)CO)C(=O)c2cc(NC(=O)CCC(F)(F)F)ccc2O1 -0.4
CC(C)NC(=O)N(C)C[C@H]1OCCCC[C@H](C)Oc2ccc(N(C)C)cc2C(=O)N([C@@H](C)CO)C[C@H]1C 0.7
COc1ccc(NC(=O)Nc2ccc3c(c2)C(=O)N([C@@H](C)CO)C[C@@H](C)[C@@H](CN(C)S(=O)(=O)c2ccc(C)cc2)OCCCC[C@@H](C)O3)cc1 -1.4
C[C@H](CO)N1C[C@H](C)[C@H](CN(C)C(=O)Nc2ccccc2)Oc2c(NS(C)(=O)=O)cccc2C1=O -1.6
C[C@@H]1CN([C@H](C)CO)C(=O)c2cc(N(C)C)ccc2O[C@@H]1CN(C)C(=O)Nc1ccc(F)cc1 1.3
COc1ccc(S(=O)(=O)Nc2cccc3c2O[C@@H](CN(C)Cc2ccc(-c4ccccc4)cc2)[C@@H](C)CN([C@H](C)CO)C3=O)cc1 -0.1
CC(C)NC(=O)Nc1ccc2c(c1)C(=O)N([C@@H](C)CO)C[C@H](C)[C@@H](CN(C)S(=O)(=O)c1ccccc1)OCCCC[C@H](C)O2 0.1
C[C@H](CO)N1C[C@H](C)[C@H](CN(C)CC2CC2)OCCCC[C@H](C)Oc2ccc(NC(=O)C3CCCCC3)cc2C1=O 0.1
C[C@@H]1CCCCO[C@@H](CN(C)C(=O)Cc2ccccc2)[C@H](C)CN([C@@H](C)CO)C(=O)c2cc(NC(=O)Nc3ccc(F)cc3)ccc2O1 0.1
COc1ccc(S(=O)(=O)Nc2ccc3c(c2)C(=O)N([C@@H](C)CO)C[C@@H](C)[C@H](CN(C)Cc2ccc(C(=O)Nc4ccccc4N)cc2)O3)cc1 -0.7
C[C@@H]1CN([C@@H](C)CO)C(=O)c2cc(NS(C)(=O)=O)ccc2O[C@H]1CN(C)Cc1ccc(Cl)c(Cl)c1 0.9
C[C@@H]1CN([C@H](C)CO)C(=O)CCCn2cc(nn2)CO[C@H]1CN(C)C(=O)Cc1ccccc1 -0.3
C[C@H]1CN([C@@H](C)CO)C(=O)c2cccc(NC(=O)C3CC3)c2O[C@@H]1CN(C)Cc1ccc(C(F)(F)F)cc1 0.5

2 compounds drawn at random from the list so far:
SMILES A1_apoptosis_2
COc1ccc(CN(C)C[C@H]2Oc3c(NC(=O)c4cnccn4)cccc3C(=O)N([C@H](C)CO)C[C@@H]2C)cc1 0.9
Cc1noc(C)c1S(=O)(=O)Nc1ccc2c(c1)CC(=O)N([C@@H](C)CO)C[C@H](C)[C@H](CN(C)CC1CCCCC1)O2 -1.0

The results go on:
SMILES A1_apoptosis_2
COc1ccc(S(=O)(=O)Nc2cccc3c2O[C@H](CN(C)S(=O)(=O)c2ccc(F)cc2)[C@@H](C)CN([C@H](C)CO)C3=O)cc1 0.9
C[C@H]1CN([C@@H](C)CO)C(=O)c2cc(NC(=O)Cn3cnnn3)ccc2O[C@@H]1CN(C)S(=O)(=O)c1cccs1 -1.2
C[C@@H]1CN([C@H](C)CO)C(=O)c2cc(NC(=O)C3CC3)ccc2O[C@@H]1CN(C)S(=O)(=O)c1cccs1 0.3
COc1ccc(NC(=O)Nc2ccc3c(c2)CC(=O)N([C@H](C)CO)C[C@H](C)[C@@H](CN(C)Cc2ccc(-c4ccccc4)cc2)O3)cc1 0.3
COc1ccc(CN(C)C[C@@H]2Oc3ccc(NC(=O)CCC(F)(F)F)cc3C(=O)N([C@@H](C)CO)C[C@H]2C)cc1 -0.1
Cc1ccc(S(=O)(=O)Nc2ccc3c(c2)CC(=O)N([C@@H](C)CO)C[C@H](C)[C@@H](CN(C)C)O3)cc1 0.1
C=C[C@H](COC(C)=O)N(C(=O)OC(C)(C)C)S(=O)(=O)c1ccc(Br)cc1 -0.2
COc1ccc(NC(=O)N(C)C[C@@H]2OCCCC[C@H](C)Oc3ccc(NC(=O)Nc4c(C)noc4C)cc3C(=O)N([C@@H](C)CO)C[C@H]2C)cc1 0.2
O=C(NO)c1cccc(C(=O)N/N=C/c2ccc(O)c(O)c2O)c1 -1.3
COc1ccc(S(=O)(=O)Nc2ccc3c(c2)C(=O)N([C@@H](C)CO)C[C@H](C)[C@H](CN(C)C(=O)Nc2ccc(C(F)(F)F)cc2)OCCCC[C@H](C)O3)cc1 -1.1
COCC1=C2[C@@H](c3ccccc3)OB(O)C[C@@H]2n2c(=O)n(-c3ccccc3)c(=O)n2C1 -0.4
C[C@H]1CCCCO[C@@H](CN(C)C(=O)C2CCCCC2)[C@@H](C)CN([C@@H](C)CO)C(=O)c2cc(NC(=O)CCC(F)(F)F)ccc2O1 -1.2
C[C@@H]1CN([C@H](C)CO)C(=O)Cc2cc(NC(=O)Cc3cn(C)c4ccccc34)ccc2O[C@H]1CN(C)Cc1ccc2c(c1)OCO2 1.0
CNC[C@H]1Oc2c(NS(=O)(=O)c3cn(C)cn3)cccc2C(=O)N([C@H](C)CO)C[C@H]1C 0.2
Cc1ccc(S(=O)(=O)Nc2cccc3c2O[C@@H](CN(C)S(C)(=O)=O)[C@@H](C)CN([C@@H](C)CO)C3=O)cc1 0.7
C[C@@H]1CN([C@H](C)CO)C(=O)c2cccc(NS(C)(=O)=O)c2O[C@@H]1CN(C)S(=O)(=O)c1ccc(Cl)cc1 0.1
C[C@H]1CN([C@@H](C)CO)C(=O)c2cc(NS(=O)(=O)c3ccc(F)cc3)ccc2O[C@H]1CN(C)Cc1ccc2c(c1)OCO2 -0.4
COc1cc(/C=N/NC(=O)c2ccc(C(=O)NO)cc2)c(Br)cc1O -4.9
COc1ccc(S(=O)(=O)N(C)C[C@H]2Oc3c(NS(=O)(=O)c4ccc(Cl)cc4)cccc3C(=O)N([C@H](C)CO)C[C@H]2C)cc1 -0.5
C[C@@H]1CN([C@@H](C)CO)C(=O)c2cc(NC(=O)c3ccncc3)ccc2O[C@@H](C)CCCCO[C@H]1CN(C)C(=O)Cc1ccccc1 0.3
COc1ccc(S(=O)(=O)N(C)C[C@@H]2Oc3ccc(NC(=O)Cc4cn(C)c5ccccc45)cc3C(=O)N([C@@H](C)CO)C[C@H]2C)cc1 0.7
C[C@@H]1CN([C@H](C)CO)C(=O)c2cc(NS(=O)(=O)c3cccs3)ccc2O[C@H]1CN(C)C 0.3
C[C@H](CO)N1C[C@H](C)[C@H](CN(C)CC2CCCCC2)Oc2ccc(NC(=O)C3CCCCC3)cc2C1=O -1.0
C[C@@H]1CN([C@H](C)CO)C(=O)c2cc(NC(=O)Cc3ccccc3)ccc2O[C@@H]1CN(C)Cc1ccc(C(F)(F)F)cc1 1.0
C[C@@H]1CCCCO[C@H](CN(C)C(=O)CCC(F)(F)F)[C@@H](C)CN([C@@H](C)CO)C(=O)c2cc(NC(=O)CCCCCC(=O)Nc3ccccc3N)ccc2O1 0.2
C[C@@H]1CN([C@@H](C)CO)C(=O)Cc2cc(NC(=O)CCCCCC(=O)Nc3ccccc3N)ccc2O[C@H]1CN(C)C -1.1
Cc1ccc(S(=O)(=O)N(C)C[C@@H]2Oc3ccc(NC(=O)C4CC4)cc3CC(=O)N([C@H](C)CO)C[C@@H]2C)cc1 1.4
C[C@H](CO)N1C[C@H](C)[C@H](CN(C)Cc2ccc(C(F)(F)F)cc2)OCCCC[C@H](C)Oc2ccc(NC(=O)Nc3ccc(C(F)(F)F)cc3)cc2C1=O -1.5
Cc1ccc(S(=O)(=O)Nc2cccc3c2O[C@@H](CN(C)S(=O)(=O)c2ccccc2)[C@H](C)CN([C@H](C)CO)C3=O)cc1 1.1
Cc1ccc(S(=O)(=O)N(C)C[C@H]2Oc3ccc(NS(=O)(=O)c4ccc(F)cc4)cc3CC(=O)N([C@@H](C)CO)C[C@@H]2C)cc1 -0.3
C[C@H]1CN([C@@H](C)CO)C(=O)c2cccc(NC(=O)c3ccncc3)c2O[C@@H]1CN(C)S(=O)(=O)c1cccs1 -0.9

High-throughput results as filed in PubChem.
